Rango release inh – prevents RanGTP from dissociating the Rango-importin beta complex. AID 540253. hit rate 0.071% among 340,000. Potency, µM (highest dose often 46.1 µM), for the others: at the highest dose activity change, negative = inhibition. O95149+P62826. Biochemical FRET Rango-importin beta, RanGTP-induced dissociation; active means falling FRET ratio curve, often poorly fitted, with flat reads before Ran was added; inconclusive means other falling curves, or compound fluorescence or quenching; inactive means flat or rising ratio curve;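 also: potency is read from the fitted curve at half-maximal effect; % of control where 0% means no effect; nearly all actives have a fitted effect of over 45% in size; -100% = wells without RanGTP and RCC1; the record marks most hits as doubtful in a second field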
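Compounds sat 5 min at room temperature with 0.1 uM Rango biosensor plus 0.25 uM importin beta, then FRET pre-read. RanGTP-RCC1 (0.6 uM Ran, 2mM GTP, 0.2 uM RCC1) added for 45 min, and the CFP/YFP post-read measured blocked complex dissociation.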
GLA inh pH 4.5 – inhibitors of human alpha-galactosidase A at pH 4.5. P06280. purified enzyme, 4-MU-alpha-Gal fluorescence, pH 4.5. activity change, negative = inhibition, % at 105 µM. 230,000 tested, under 10 active; inconclusive = small, poorly fitted or top-dose-only inhibition, or a rising curve; inactive = flat fitted curve, though single readings scatter; no compound was filed as active;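 also: 0% = full activity with enzyme and -100% = basal without enzyme; dose as in the result columns while the protocol names 77 µM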
Target sequence (P06280 whole entry, looked up): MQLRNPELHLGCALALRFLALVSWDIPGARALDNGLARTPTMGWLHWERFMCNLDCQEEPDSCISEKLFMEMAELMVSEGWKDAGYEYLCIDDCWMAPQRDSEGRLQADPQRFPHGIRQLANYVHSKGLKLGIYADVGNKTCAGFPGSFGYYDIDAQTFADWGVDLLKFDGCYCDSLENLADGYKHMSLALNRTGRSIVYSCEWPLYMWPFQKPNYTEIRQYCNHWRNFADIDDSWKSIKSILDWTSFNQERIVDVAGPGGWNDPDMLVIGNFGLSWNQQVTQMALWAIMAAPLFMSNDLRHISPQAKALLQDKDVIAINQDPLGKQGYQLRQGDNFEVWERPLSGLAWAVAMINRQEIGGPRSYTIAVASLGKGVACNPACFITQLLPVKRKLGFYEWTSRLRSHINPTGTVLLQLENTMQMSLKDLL
miR-21 reporter – miR-21 reporter, rising signal; Potency, µM (series often up to 38.3 µM), for inactives: at the top dose reporter change, positive = more light; HeLa miR-21 FLuc reporter, luciferase, 48 h; AID 2288; 340,000 tested, under 10 active; active = well fitted rising curve with a large enough effect; inconclusive = small, poorly fitted or top-dose-only effect; inactive = no such curve, though single readings can be large or run the other way;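 also: % of control where 0% means no effect; miR-21 action dims this reporter so a rising signal means less miR-21 action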
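Luminescence from a firefly luciferase reporter carrying a miR-21 binding site downstream, stably expressed under a CMV promoter in HeLa cells that make miR-21 endogenously, reports miRNA modulation after 48 h compound exposure up to approximately 40uM final.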
Rango complex inh – inhibitors of Rango-importin beta complex formation; Potency, µM (titrated, usually from 92.2 µM), for inactives: at the highest dose inhibition of complex formation; hit rate 0.031% among 340,000; AID 540263; Rango CFP/YFP FRET sensor + importin beta, 45 min; active = rising FRET ratio curve, often small or poorly fitted; inconclusive = mostly compound fluorescence or quenching in the first reads; inactive = flat curves in all reads;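 also: potency is read from the fitted curve at half-maximal effect; 0% = DMSO wells and 100% = buffer wells lacking importin beta; nearly all actives have a fitted effect of over 15% in size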
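FRET biosensor Rango (snurportin 1 IBB between N-terminal EYFP and C-terminal Cerulean), 50 nM in PBS/1 mM DTT/0.02% Tween-20/0.1% BSA, preincubated 5 min RT with compound; 0.125 microM importin beta added, 45 min RT, CFP/YFP FRET ratio read.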
An asterisk follows results filed as active; ? = inconclusive; . = no result given; & = joins results of further samples; [ ] = another dose, or the depositor's remark.

Rango release inh | GLA inh pH 4.5 | miR-21 reporter | Rango complex inh | mol
0% | -3 | -6%&-9% | -3.9% | Cc1ccc(NC(=O)c2cc(C)nn2-c2ccccc2)cc1
-3% | 0 | -6% | -3.0% | COc1cccc(/C=N/NC(=O)CC2C(=O)NN=C2C)c1OC (centres undefined)
12% | . | 17% | 3.4% | Cc1ccc(C(=O)Nc2sc3c(c2C(=O)O)CCCC3)o1
18% | -8 | 1% | -0.7% | Cn1c(-c2ccc(F)cc2)cnc1SCC(=O)Nc1ccccc1
-3% | 5 | -5% | 0.0% | COC(=O)c1ccc(CSc2nnc(NC(=O)C3CC(=O)N(Cc4ccc(C)cc4)C3)s2)cc1 (centres undefined)
12% | -4 | -1% | -4.3% | COc1ccc(C(CC(=O)O)NC(=O)OC(C)(C)C)cc1 (centres undefined)
9% | -12 | 30% | -3.2% | Cc1[nH]n(-c2ccccc2)c(=O)c1N=Nc1ccccc1O
5% | . | -3% | -0.3% | Cc1ccc(S(=O)(=O)Cc2ccc([N+](=O)[O-])cc2)cc1
5% | 2 | 3% | -0.4% | COc1cccc(CN2CCN(C(=O)CCc3nnc(C4CCCCC4)o3)CC2=O)c1
11% | -10 | 22% | -1.4% | Cc1onc(-c2ccccc2Cl)c1C(=O)Nc1ccccc1C(=O)NC(C)C
2% | . | 24% | -1.8% | Cc1cccc(NS(=O)(=O)c2ccc(-c3cnc(C4CC4)o3)cc2)c1
-3% | . | . | -3.9% | COC(=O)c1ccc(N2C(=O)CC(N3CCN(c4ccccc4)CC3)C2=O)cc1 (centres undefined)
-11% | 12 | -4% | -0.9% | Cc1cc(C)n2nc(SCCCC(=O)c3ccccc3)nc2n1
-8% | . | 1% | 1.8% | COc1cccc(/C=C/c2onc(C)c2S(=O)(=O)N2CCC(C(=O)NC3CCCCCC3)CC2)c1
-2% | . | . | -0.8% | O=C1NC(=O)C2(C=C(c3ccccc3)C(O)(c3ccccc3)C2)N1 (centres undefined)
1% | -23 | 28% | 0.9% | Cc1nn(C2CCS(=O)(=O)C2)c(Cl)c1/C=C/C(=O)OCC(=O)c1c[nH]c2ccccc12 (centres undefined)
-10% | -1 | -14% | -0.8% | CN(C)c1cc(-c2ccc(F)cc2)oc(=O)c1Cl
13% | ? | -4% | -0.7% | CCOc1cc(C2C3=C(CCCC3=O)Nc3nc(C(=O)OC)nn32)ccc1OC (centres undefined)
20% | . | -5% | 0.6% | COc1ccccc1-c1cc(C(=O)NC2CCN(C)CC2)c2ccc(Cl)c(C)c2n1
1% | -10 | -5% | 2.6% | Cc1ccc(OCC(O)CN2CCN(Cc3ccc4c(c3)OCO4)CC2)cc1C (centres undefined)
11% | . | . | -3.7% | C[C@H](CO)N1C[C@H](C)[C@@H](CN(C)Cc2ccc3c(c2)OCO3)Oc2c(NC(=O)Cc3ccccc3)cccc2C1=O
-4% | . | -8% | -4.8% | Brc1cccc(OCCCCn2cncn2)c1
-14% | . | 4% | -0.8% | O=C1CSC(=S)N1c1cccc(Cl)c1
? | -2 | -1% | ? | CCCCN(C)C1=Nc2cccc3cccc1c23
-20% | . | . | -4.1% | CSCCC(NC(=O)c1ccc(Cl)cc1Cl)C(=O)NCC(c1cccs1)N(C)C (centres undefined)

(cont.)
Rango release inh | GLA inh pH 4.5 | miR-21 reporter | Rango complex inh | mol
19% | -10 | -10% | 4.6% | O=C(NC12CC3CC(CC(C3)C1)C2)c1cc([N+](=O)[O-])ccc1N1CCOCC1
1% | -5 | -8% | 1.0% | COc1nc(N(CC(N)=O)S(=O)(=O)c2ccccc2)nc(C)c1Cl
-16% | 0 | 1% | 1.1% | Cc1c(Cl)c([N+](=O)[O-])nn1CCCC(=O)N(Cc1ccccc1)Cc1ccccc1
1% | . | 0% | -0.6% | CCN1CCN(C(=O)CCc2nnc(CCc3ccccc3OC)o2)[C@@H](C)C1=O
22% | -8 | -9% | 2.3% | COc1ccc(NC2c3ccccc3C(=O)N2Cc2ccccc2Cl)cc1OC (centres undefined)
13% | . | -4% | 2.1% | CN(Cc1nccs1)C(=O)C1CCC(=O)N(CCc2cccc(F)c2)C1 (centres undefined)
14% | . | -3% | 6.6% | O=C(Nc1ccccc1NC(=O)c1ccco1)c1ccccc1
-2% | -6 | -5% | 1.5% | O=C(O)/C=C/c1cn(-c2ccccc2)nc1-c1cccs1
? | . | 1% | ? | O=C1/C(=C/c2ccc3c(c2)OCO3)Oc2cc(OCC(=O)N3CCC[C@H]3C(=O)O)ccc21
-12% | -1 | 0% | -0.8% | O=C(CCSCc1ccccc1F)NCc1cccs1
-16% | 1 | -3% | -4.0% | Cc1ccc(S(=O)(=O)Nc2ccc3c(c2)OCCO3)cc1
-5% | 1 | -26% | 4.5% | CCOc1nc(SC(C(C)=O)C(=O)Nc2ccccc2)nc(N(C)C)n1 (centres undefined)
-7% | . | 0% | -3.5% | O=S(=O)(NCC1CCCO1)c1ccccc1 (centres undefined)
-19% | 1 | 5% | 1.1% | O=C1OC(c2ccccc2)=N/C1=C\C=C\c1ccco1
11% | -11 | -1% | 3.1% | Cc1ccc(C(=O)N2c3ccccc3NC(=O)C2C)cc1 (centres undefined)
6% | -7 | -1% | 2.7% | Cc1nnc(Sc2cc(C(=O)NCc3ccco3)c3ccccc3n2)s1
19% | . | -2% | 1.3% | CC(=O)CN1C(=O)NC2(CCCc3ccccc32)C1=O (centres undefined)
-6% | -4 | -10% | -0.1% | COC(=O)COc1ccc(S(=O)(=O)N2CCc3ccccc3C2)cc1
-2% | 2 | -5% | 0.3% | COc1ccccc1C(CC(=O)Nc1ccc(C)c(C)c1)c1ccc(OC(C)C)cc1 (centres undefined)
14% | . | . | 0.4% | Cc1nc2ncnn2c(Nc2ccc3c(c2)OCCO3)c1C
-2% | . | -1% | 1.8% | COc1ccccc1N1CCN(C2CCCN(C(=O)c3ccccn3)C2)CC1 (centres undefined)
6% | -5 | -10% | -1.5% | Cn1c(=O)c2c(n(C)c1=O)=NC1(CCCCC1)ON=2
-15% | . | . | -0.8% | CCN1C(=O)[C@@H]2[C@H](C1=O)[C@@H]1C(=O)Nc3ccccc3C(=O)N1[C@@H]2c1ccc(Br)cc1
-8% | . | 12% | 1.9% | COc1cc(-c2cc(C(=O)N(C)Cc3ccccc3)c3ccccc3n2)cc(OC)c1OC
? | . | 11% | ? | COC(=O)C1=CN(Cc2ccc(C)cc2)C=C(C(=O)OC)C1c1cc(OC)c(OC)c(OC)c1

Random excerpt: seven records from the list, in no set order.
Rango release inh | GLA inh pH 4.5 | miR-21 reporter | Rango complex inh | mol
-3% | 0 | -6% | -3.0% | COc1cccc(/C=N/NC(=O)CC2C(=O)NN=C2C)c1OC (centres undefined)
0% | -3 | -6%&-9% | -3.9% | Cc1ccc(NC(=O)c2cc(C)nn2-c2ccccc2)cc1
22% | -8 | -9% | 2.3% | COc1ccc(NC2c3ccccc3C(=O)N2Cc2ccccc2Cl)cc1OC (centres undefined)
-2% | -6 | -5% | 1.5% | O=C(O)/C=C/c1cn(-c2ccccc2)nc1-c1cccs1
-16% | 1 | -3% | -4.0% | Cc1ccc(S(=O)(=O)Nc2ccc3c(c2)OCCO3)cc1
19% | . | -2% | 1.3% | CC(=O)CN1C(=O)NC2(CCCc3ccccc32)C1=O (centres undefined)
12% | . | 17% | 3.4% | Cc1ccc(C(=O)Nc2sc3c(c2C(=O)O)CCCC3)o1

One compound at a time, as listed above. Order of values: Rango release inh, GLA inh pH 4.5, miR-21 reporter, Rango complex inh
Record of `COC(=O)C1=CN(Cc2ccc(C)cc2)C=C(C(=O)OC)C1c1cc(OC)c(OC)c(OC)c1` = ?, ., 11%, ?
Record of `O=C(NC12CC3CC(CC(C3)C1)C2)c1cc([N+](=O)[O-])ccc1N1CCOCC1` = 19%, -10, -10%, 4.6%

The list goes on:
Rango release inh | GLA inh pH 4.5 | miR-21 reporter | Rango complex inh | mol
16% | -6 | -11% | -1.8% | COc1ccc(CCN/C=C2/CC(=O)NC2=O)cc1OC
-2% | -3 | -1% | 0.2% | Cc1ccccc1-c1ncc(CN2CCN(C3CCCCC3)C(CCO)C2)cn1 (centres undefined)
34% | -4 | -2% | ? | O=C(CSc1nc(C2CC2)nc2ccccc12)N1c2ccccc2Sc2ccccc21
-2% | -13 | -5% | 0.2% | Cc1cc2ncn(C(=O)c3c(-c4c(Cl)cccc4Cl)noc3C)c2cc1C
1% | . | . | -1.2% | COc1cccc(NC(=O)c2ccc(N3C(=O)C4CCC(C)CC4C3=O)cc2)c1 (centres undefined)
6% | . | -1% | 0.2% | CC(C)C[C@H](N)c1nnc(SCC(=O)Nc2ccc(Br)cc2)o1
14% | -18 | 10% | -1.9% | CCCCCCCCCCS(=O)(=O)N/N=C/c1ccc([N+](=O)[O-])cc1
1% | . | -1% | -0.1% | O=C(CCc1ccccc1)N1CCCC1
-1% | -1 | -7% | -1.7% | CCN(CCC(=O)Nc1cc([N+](=O)[O-])ccc1OC)Cc1ccccc1
-9% | -7[21.1 µM] | -25% | 0.0% | Cc1nc2ccc(NC(=O)COc3ccccc3C)cc2s1
-5% | . | . | -3.7% | Cc1cc(OCC(=O)OCC(=O)NC2CCCCCC2)ccc1Cl
-21% | . | 0%&-5% | 3.8% | Cc1ccccc1CNS(=O)(=O)c1csc(C(N)=O)c1
-6% | -8 | -36% | -0.6% | COc1ccccc1C(=O)Nc1nc2ccc(S(C)(=O)=O)cc2s1
-5% | . | -2% | -0.6% | O=C(NCC1CCCCC1)C1CCC(=O)N(CCc2cccc(F)c2)C1 (centres undefined)
23% | 7 | -31% | -3.7% | Cc1cc(NC(=O)c2cccc(Oc3ccccc3)c2)n[nH]1
2% | . | 0% | 2.8% | O=C(CN1C(=O)c2ccccc2C1=O)NC1CCCCC1
-1% | 6 | -9% | -4.5% | Cc1ccc(C)c(NC(=O)Cc2csc(-c3ccccc3)n2)c1
-8% | . | . | 1.2% | COCCNC(=O)c1onc(CSc2ccccn2)c1C(=O)NCCOC
-10% | -7 | -10% | 2.4% | COc1ccc(-n2c(=O)[nH]cc(C(=O)N3CCc4ccccc43)c2=O)cc1
26% | . | . | 6.7% | Cc1ccc(S(=O)(=O)N(C)CCN(C)S(=O)(=O)c2ccc(C)cc2)cc1
13% | 0 | 10% | -1.0% | CCOC(=O)c1[nH]c2cc(OC)c(OC)cc2c1NC(=O)C(C)N1CCN(Cc2ccccc2)CC1 (centres undefined)
-17% | 5 | -5% | 1.8% | O=C(O)c1cn(-c2ccc(F)cc2)c(=O)c2ccccc12
24% | . | 2% | -2.4% | COc1ccc(NC(=O)CS(=O)CC(=O)Nc2ccc(NC(C)=O)cc2)cc1 (centres undefined)
-21% | -2 | -1% | 0.3% | CCC(C)Nc1nc2c(c(=O)n(C)c(=O)n2C)n1Cc1cccc(C)c1 (centres undefined)
-20% | 4 | -13% | 0.4% | COc1ccc(-c2cnc(N)n2CC2CCCO2)cc1 (centres undefined)

New compounds follow.
Rango release inh | GLA inh pH 4.5 | miR-21 reporter | Rango complex inh | mol
-2% | . | . | 3.4% | CC(C)C[C@@H](CNCC(=O)[C@H](CC(=O)O)NC(=O)c1[nH]cnc1C(=O)N[C@H](CN)CC(C)C)NC(=O)c1nc[nH]c1C(=O)N[C@@H](Cc1ccccc1)C(=O)O
? | . | 23% | ? | Oc1ccc(CCNc2c3ccccc3nc3ccccc23)cc1O
-1% | . | -2% | 2.2% | O=C(Nc1ccccc1)OCCNC(=O)c1cccc(Br)c1
-16% | . | . | 6.0% | COC1C(CO)OC(n2cnc3c(=S)nc(N)[nH]c32)C1O (centres undefined)
-17% | 6 | 1% | ? | COc1ccc2cc3cc(C(=O)NCC4COc5ccccc5O4)oc3nc2c1 (centres undefined)
11% | -12 | 2% | -0.4% | CC(/C=C1\SC(=S)N(NS(=O)(=O)c2ccccc2)C1=O)=C\c1ccccc1
8% | . | . | -3.7% | C[C@@H]1CN([C@@H](C)CO)C(=O)c2cc(NC(=O)C3CC3)ccc2O[C@@H]1CN(C)C(=O)NC1CCCCC1
? | 2 | 0% | ? | O=C(N/N=C\c1ccc(-c2ccc([N+](=O)[O-])cc2)o1)C1COc2ccccc2O1 (centres undefined)

Screens from PubChem.

An excerpt, so the mix of outcomes need not match the whole.
